# FGF22 binding – FGF22 (human) thermal shift binding; recombinant FGF22 thermal shift, SYPRO orange fluorescence; percent of sucrose octasulfate shift, DMSO zero; calls only at 9.99 µM; 340,000 compounds, 1.5% hits; AID 651658;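 active means melting point raised past a set limit in the mean and every replicate; inconclusive means no clear call; three in four hits are not shown here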
# Target sequence (Q9HCT0 whole entry, looked up): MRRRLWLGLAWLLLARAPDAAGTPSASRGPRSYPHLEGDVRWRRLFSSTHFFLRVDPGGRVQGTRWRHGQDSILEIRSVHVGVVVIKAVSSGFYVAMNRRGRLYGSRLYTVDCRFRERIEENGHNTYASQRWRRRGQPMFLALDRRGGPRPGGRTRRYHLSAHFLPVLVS
# Beta apoptosis – blocks beta cell apoptosis; protection from apoptosis, % (test concentration not listed); INS-1E cytokine-induced death, ATP luminescence, 48 h; percent of positive-control rescue, neutral wells zero; AID 435005; 300,000 compounds, 0.8% hits;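 active means all replicates at 75% or more, or half of them and the mean; inconclusive means half reach 75% but not the mean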;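 further: 0% = cytokine-treated negative control wells and 100% = positive control rescue; higher means more ATP so stronger rescue from cytokine killing; wells of about 40 µL received 100 nL stock; the first replicate is given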
# T cruzi repl – blocks replication of Trypanosoma cruzi; T. cruzi beta-gal in NIH3T3, luminescence, 90 h; inhibition, % (no concentration beside the values); 300,000 compounds, 1.4% hits; AID 1885;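 active means mean inhibition across valid replicates above about 55%, limit read from the data; inconclusive means mean below that limit but half or more replicates reach it; inactive means mean below it, under half of replicates reach it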;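 further: signal also drops with host cell toxicity which is not excluded here; 0% = plate median of DMSO wells and 100% = zero luminescence signal; higher percent means less beta-gal luminescence so fewer parasites; stock transfer was 50 nL into about 50 µL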
# Calb FLC – affects C. albicans growth with fluconazole; C. albicans CaCi-2 (fluconazole-resistant clinical isolate) + fluconazole, Alamar Blue growth, 48 h; growth inhibition, % (test concentration not listed); 300,000 compounds, 0.57% hits; AID 1979;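 active means most replicates above 75%; inconclusive means exactly half above 75%; inactive means most below 75%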;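 further: all wells also contain fluconazole at 8 µg/ml as a sub-toxic cotreatment; 0% = median of DMSO wells and 100% = median of geldanamycin control wells; wells of about 8 µL received 7.5 nL stock; the first replicate is given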
# rRNA inh HTS – selective bacterial rRNA inhibition in E. coli. E. coli WT GFP vs humanized-ribosome RFP mutants, fluorescence, 24 h; active compounds read low; DMSO median 0, no signal -100. GFP signal change (wild-type ribosome), % (concentration not given with the values). 350,000 compounds, 1.6% hits. AID 720706;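 active means significant combined selectivity score with lowered wild-type GFP, culture density cut under 30%, mutant RFP and density less affected; inactive means any of these conditions unmet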; further: one replicate is shown; some compounds called inactive have numbers as strong as hits
# RanGTP-Impb inh – inhibitors of RanGTP-importin-beta interaction, primary screen, biochemical, FRET, CFP-Ran, YFP-importin-beta, homogeneous. cell-free CFP-Ran/YFP-importin-beta FRET ratio. inhibition, % (concentration not given with the values). 300,000 compounds, 1.1% hits;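 active means most replicates above 15%; inconclusive means exactly half above 15%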;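 further: 0% = DMSO wells and 100% = Ran loaded with GDP instead of GTP; wells of about 40 µL received 100 nL stock; the first replicate is given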
# ALR H2O2 inh – blocks human ALR sulfhydryl oxidase activity. inhibition, % (no concentration beside the values). AID 485317. P55789. 290,000 compounds, 3.8% hits. purified ALR, DTT oxidation, H2O2 HRP-luminol luminescence;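 active means mean and each replicate at 75% or more; inconclusive means only one of the two met; inactive means neither met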;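 further: stock transfer was 7.5 nL into about 7.5 µL; 0% = neutral wells and 100% = wells with inactivated enzyme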
# Target sequence (P55789 whole entry, looked up): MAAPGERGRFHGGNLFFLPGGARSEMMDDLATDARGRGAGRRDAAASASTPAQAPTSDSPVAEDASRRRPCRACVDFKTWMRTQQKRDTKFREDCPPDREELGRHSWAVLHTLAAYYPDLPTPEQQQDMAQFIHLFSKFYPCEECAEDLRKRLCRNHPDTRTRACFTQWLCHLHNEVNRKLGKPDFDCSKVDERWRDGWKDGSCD
# MLL AF4-AF9 inh – inhibitors of human MLL-AF4/AF9 interaction | P42568 | AlphaScreen, biotin-AF4 peptide binding to FLAG-AF9 | 350,000 compounds, 0.47% hits | inhibition, % at 10 µM;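 active means every replicate reaching a set inhibition limit, whatever the replicate mean, cut at about 25% in these data; inconclusive means mean inhibition reaches that limit but some replicates miss it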;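 further: 0% = plate neutral control median and 100% = total signal loss; the record names both 10 and 1 µM as test concentration; the first replicate is given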
# Target sequence (P42568 whole entry, looked up): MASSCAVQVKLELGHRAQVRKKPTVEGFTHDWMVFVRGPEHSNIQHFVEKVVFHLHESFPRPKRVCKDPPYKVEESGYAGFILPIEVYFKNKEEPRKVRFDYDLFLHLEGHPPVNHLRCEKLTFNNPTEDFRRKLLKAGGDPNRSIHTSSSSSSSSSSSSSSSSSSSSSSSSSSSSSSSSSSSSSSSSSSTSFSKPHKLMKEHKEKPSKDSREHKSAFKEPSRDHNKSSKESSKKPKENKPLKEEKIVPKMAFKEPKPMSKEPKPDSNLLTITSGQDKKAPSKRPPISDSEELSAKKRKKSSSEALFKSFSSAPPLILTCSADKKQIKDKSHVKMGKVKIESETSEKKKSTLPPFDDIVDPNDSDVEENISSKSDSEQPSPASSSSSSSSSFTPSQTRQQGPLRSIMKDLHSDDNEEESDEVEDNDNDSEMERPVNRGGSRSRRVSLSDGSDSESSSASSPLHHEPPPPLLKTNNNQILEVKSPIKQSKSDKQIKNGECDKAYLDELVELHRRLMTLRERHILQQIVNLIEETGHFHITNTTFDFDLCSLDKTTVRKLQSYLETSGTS
# rRNA inh HTS OD600 – recorded beside rRNA inh HTS, whose call it bears; OD600 change, %; measured here: OD600 growth;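 optical density of the mix in the first replicate; 0 = DMSO median and -100 = no signal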
# rRNA inh HTS RFP – recorded beside rRNA inh HTS, whose call it bears; RFP signal change, %; measured here: RFP humanized mutant strains;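 first replicate; 0 = DMSO median and -100 = no signal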
# Active calls of the source: *; i = inactive; u = inconclusive; x = no result given. These rows are one share of the data; the hit share may differ from the screen's.
# Results follow in this order: FGF22 binding, Beta apoptosis, T cruzi repl, Calb FLC, rRNA inh HTS, rRNA inh HTS OD600, rRNA inh HTS RFP, RanGTP-Impb inh, ALR H2O2 inh, MLL AF4-AF9 inh
CC(=O)c1ccc(N2C(=O)[C@@H]3C(CCC(N)=O)NC4(C(=O)Nc5c4ccc(Cl)c5C)[C@@H]3C2=O)cc1 (stereo partly drawn)
  x, -2.4, -4.9, -9.3, x, x, x, 0.8, -0.6, x
O=C(Cc1cccs1)Nc1ccc(-c2nc3ccccc3[nH]2)cc1
  x, 8.8, -12.7, 5.9, x, x, x, 1.9, 1.4, x
CCSc1nnc(NC(=O)c2nc(S(=O)(=O)Cc3ccc(F)cc3)ncc2Cl)s1
  i, -29.5, -11.3, 3.3, 4.0, 5.0, 0.1, -0.7, 20.2, -2.6
Cc1ccc(CN(Cc2cc3cccc(C)c3[nH]c2=O)C(=S)NCCCN(C)C)cc1
  i, -10.1, 1.5, -11.2, -19.1, -21.9, 3.4, 3.8, x, 10.0
Cc1ccc(C(=O)Nc2c3c(nn2C(C)(C)C)CS(=O)(=O)C3)cc1C
  x, -0.3, -6.0, -2.5, x, x, x, -1.8, 0.9, x
COc1ccc(N(CC(=O)Nc2ccc(C)cc2)S(=O)(=O)c2c(C)noc2C)cc1
  i, -0.1, 0.9, -2.1, 20.4, 19.1, 5.0, u, -33.8, -5.8
Cc1csc2c(N3CCN(C(=S)Nc4ccc(C(F)(F)F)cc4)CC3)ncnc12
  i, -3.6, -12.3, -3.4, -32.0*, -19.4*, 2.1*, -1.0, -1.2, 2.6
O=C(Nc1ccccc1-c1nnc(SCc2ccccc2)o1)c1ccccc1
  x, -2.8, 6.3, -14.8, x, x, x, -1.6, -7.6, x
CN(C)c1ccc(/C=N/Nc2nc3ccccc3o2)cc1
  i, 16.3, 25.3, -6.8, 16.1, 13.8, 0.3, 0.7, x, 0.2
CNC(=S)Nc1ccc2nc(C)c(C)nc2c1
  x, 3.2, -17.3, u, x, x, x, 3.3, -2.4, x
O=c1oc2cc(OCc3c(F)c(F)c(F)c(F)c3F)ccc2cc1-c1ccccn1
  i, -3.6, 1.0, -1.2, -2.4, 2.0, -9.9, 4.1, -2.2, 1.0
COc1ccc(C(=O)N2CCN(S(=O)(=O)c3ccc(C)cc3)CC2)cc1S(=O)(=O)N1CCOCC1
  i, 0.6, 9.3, 4.2, -1.1, 1.5, 0.8, 3.7, 0.2, u
O=C(CN1CCc2ccccc2C1)Nc1cc(S(=O)(=O)N2CCOCC2)ccc1N1CCOCC1
  i, -6.2, 19.7, -0.5, 3.8, 7.1, 6.8, 3.6, 31.2, 5.1
COC(=O)C1=C(O)/C(=C\c2cc(C)n(-c3ccc(F)cc3)c2C)N=C1C
  i, -11.7, -15.5, 33.6, 22.5, 12.0, 9.7, 9.3, -9.5, 5.1
CC1(C)c2ccccc2-c2nc3ccccc3cc2C1O (stereo not drawn)
  i, 0.1, 1.0, -2.7, -9.5, -19.3, -0.9, 2.1, 13.2, -3.8
COc1ccc(C2(O)C(=O)Nc3ccc(C)cc32)cc1OC (stereo not drawn)
  i, x, -5.5, -2.3, 10.1, 2.6, 16.7, -3.7, -13.3, -0.4
COc1ccc(CNC(N)=O)cc1
  x, -3.4, -4.3, -3.8, x, x, x, 3.1, 3.0, x
Cn1c2c(c(=O)n(C)c1=O)[C@@H]1c3c(ccc4ccccc34)OC[C@@H]1CO2
  x, -3.4, -3.2, -4.6, x, x, x, u, -39.2, x
O=C1c2ccccc2C2(c3cc(C(F)(F)F)cc(C(F)(F)F)c3)NCCN12 (stereo not drawn)
  i, 2.4, 12.1, -2.1, -20.9, -24.8, -0.4, 2.2, 8.4, 4.9
Cn1cccc1C(=O)OCc1ccc(C(C)(C)C)cc1
  i, 8.4, 29.5, -14.0, 0.0, 5.9, 0.2, 6.4, -3.8, -4.5
COc1cc(C(=O)NCCSc2ccc(Br)cc2)cc(OC)c1OC
  i, 2.4, -2.7, 3.8, -22.7, -20.8, -4.6, 5.2, 0.3, 0.0
COc1cc(OC)cc(-c2sc3ccc(OC)cc3c2-c2ccc(O)cc2)c1
  i, 1.9, x, x, 1.7, 4.8, 1.0, x, 1.0, 0.9
Cc1ccc(S(=O)(=O)NC(=O)c2cc(C)n(CC(c3ccccc3)N(C)C)c2C)cc1 (stereo not drawn)
  i, 6.1, -2.0, -20.0, 9.3, -6.7, -2.0, -4.3, 9.2, 1.6
CCOc1ccc(OCCSc2nc(-c3ccccc3)cc(=O)[nH]2)cc1
  i, x, 15.1, -8.6, 10.7, 21.3, 3.3, -0.3, 12.9, -15.3
O=C(CN1C(=O)C2CC=CCC2C1=O)Nc1ccc(S(=O)(=O)N2CCOCC2)cc1 (stereo not drawn)
  i, -2.1, -5.6, -26.3, 25.1, 20.4, 3.5, -2.3, 0.7, -0.2
COC(=O)c1ccc(NC(=O)NCCCl)cc1
  i, -4.3, -3.7, -19.9, 13.8, 15.8, 0.2, 0.3, -9.0, -5.5
CCOc1ccc(NC(=O)CN(C)CC(=O)NC2CCCc3ccccc32)cc1OCC (stereo not drawn)
  x, 3.9, 17.9, -6.9, x, x, x, 1.6, x, x
Cc1ccc(C)c(N2CCN(C(=O)Cc3ccc(NC4=NC5CS(=O)(=O)CC5S4)cc3)CC2)c1 (stereo not drawn)
  i, -8.6, -1.2, 8.4, -5.9, -6.9, -1.2, 1.4, 1.2, 10.6
C[C@H](NC(=O)C1CCN(S(=O)(=O)c2ccccc2)CC1)C(=O)NCc1ccc(Cl)c(Cl)c1
  i, -3.6, 3.4, -0.4, -2.8, -16.1, 2.2, 3.1, -2.1, 0.7
O=C(N[C@@H](Cc1c[nH]c2ccccc12)C(=O)NC1CC1)c1ccccc1Cl
  x, -1.8, -6.4, -7.4, x, x, x, -0.6, -4.5, x
O=S(=O)(NCCN1CCOCC1)c1cccc(C(F)(F)F)c1
  i, -5.6, -2.3, 8.7, 10.0, 9.0, -1.7, 6.1, -18.5, -3.2
COc1ccc(Br)cc1CN(C)C(=O)c1cc(Cl)c2c(c1)OCCO2
  i, -3.2, 3.9, -10.2, -8.4, -42.2, -0.5, -0.2, -15.5, 1.7
Cc1ccc(C(=O)N/C(=C\c2ccc3c(c2)OCO3)C(=O)N2CCOCC2)cc1
  i, -3.1, -20.7, -39.2, 16.6, 14.4, -0.4, -1.4, 3.1, 0.4
CC(C)c1ccccc1NC(=S)NCc1ccccc1F
  i, 2.6, 18.7, 0.0, -8.2, -19.0, -4.2, 6.3, -7.4, -0.8
CC(C)(C)C(=O)[C@H]1[C@H](c2ccccc2)[C@@]2(N=C(c3ccccc3)OC2=O)C2c3ccccc3C=NN21 (stereo partly drawn)
  x, -7.6, -6.7, -2.9, 0.9, 6.9, -6.8, 0.8, -3.5, x
COc1ccc2cc(C3CC(c4ccco4)=NN3C(=O)CCC(=O)O)c(Cl)nc2c1 (stereo not drawn)
  i, -2.5, 8.0, 7.1, 8.2, 5.8, 0.3, 2.8, x, -9.7
COc1ccc(NC(=O)CN2C(=O)C(C)Oc3ccccc32)cc1OC (stereo not drawn)
  i, x, -0.2, -5.5, 10.1, 0.2, -3.1, -1.4, -10.8, -0.2
CC(C)c1ccc(NC(=O)CCN2C(=O)[C@@H]3Cc4ccccc4CN3C2=O)cc1
  i, -1.1, -2.4, 13.3, 4.9, 13.1, -2.1, 3.8, -3.9, -0.6
CN(CC1CCOCC1)C(=O)CC1C(=O)NCCN1Cc1cccc(F)c1 (stereo not drawn)
  i, -4.5, -2.8, -8.1, 19.9, 19.3, 2.1, 4.4, -9.6, 0.4
CC1Cc2ccccc2N1C(=O)Cn1cnc2c1c(=O)n(C)c(=O)n2C (stereo not drawn)
  i, 1.7, -1.4, -11.0, -1.3, -4.2, 3.6, 1.5, -2.2, -0.9

# 6 compounds picked at random from those above:
# Results follow in this order: FGF22 binding, Beta apoptosis, T cruzi repl, Calb FLC, rRNA inh HTS, rRNA inh HTS OD600, rRNA inh HTS RFP, RanGTP-Impb inh, ALR H2O2 inh, MLL AF4-AF9 inh
COc1cc(OC)cc(-c2sc3ccc(OC)cc3c2-c2ccc(O)cc2)c1
  i, 1.9, x, x, 1.7, 4.8, 1.0, x, 1.0, 0.9
C[C@H](NC(=O)C1CCN(S(=O)(=O)c2ccccc2)CC1)C(=O)NCc1ccc(Cl)c(Cl)c1
  i, -3.6, 3.4, -0.4, -2.8, -16.1, 2.2, 3.1, -2.1, 0.7
CC(C)c1ccc(NC(=O)CCN2C(=O)[C@@H]3Cc4ccccc4CN3C2=O)cc1
  i, -1.1, -2.4, 13.3, 4.9, 13.1, -2.1, 3.8, -3.9, -0.6
Cc1ccc(S(=O)(=O)NC(=O)c2cc(C)n(CC(c3ccccc3)N(C)C)c2C)cc1 (stereo not drawn)
  i, 6.1, -2.0, -20.0, 9.3, -6.7, -2.0, -4.3, 9.2, 1.6
CC(C)(C)C(=O)[C@H]1[C@H](c2ccccc2)[C@@]2(N=C(c3ccccc3)OC2=O)C2c3ccccc3C=NN21 (stereo partly drawn)
  x, -7.6, -6.7, -2.9, 0.9, 6.9, -6.8, 0.8, -3.5, x
COc1ccc2cc(C3CC(c4ccco4)=NN3C(=O)CCC(=O)O)c(Cl)nc2c1 (stereo not drawn)
  i, -2.5, 8.0, 7.1, 8.2, 5.8, 0.3, 2.8, x, -9.7

# (cont.)
# Results follow in this order: FGF22 binding, Beta apoptosis, T cruzi repl, Calb FLC, rRNA inh HTS, rRNA inh HTS OD600, rRNA inh HTS RFP, RanGTP-Impb inh, ALR H2O2 inh, MLL AF4-AF9 inh
COc1cccc(C(=O)C2CCCN(CC3=Cc4cc(OC)ccc4OC3)C2)c1 (stereo not drawn)
  i, -1.8, 52.0, -19.2, -30.6, -34.0, -3.1, 7.5, -4.1, 1.1
Cc1noc(C)c1COc1ccccc1C(=O)NNC(=O)c1ccc(F)cc1
  i, -3.3, x, x, 0.9, 3.9, -0.6, x, 7.0, 1.9
O=C(CSc1nnc(-c2ccncc2)s1)Nc1ccccc1
  i, -6.4, -2.0, -4.3, 0.7, 6.7, -1.4, -5.0, -1.2, 0.4
Cc1cccc(NC(=O)[C@@H](CC(C)C)NC(=O)[C@@H]2Cc3ccccc3CN2)c1
  i, -2.8, 13.4, 7.0, -1.5, 3.4, -2.2, 2.1, -14.4, 0.3
COc1ccc(Cc2nnc(NC(=O)c3ccc(OC(C)=O)cc3)s2)cc1OC
  i, -3.3, -6.8, 11.9, 8.8, 12.0, 0.6, 0.4, -3.7, -2.7

# Single records (already shown). Values in the order: FGF22 binding	Beta apoptosis	T cruzi repl	Calb FLC	rRNA inh HTS	rRNA inh HTS OD600	rRNA inh HTS RFP	RanGTP-Impb inh	ALR H2O2 inh	MLL AF4-AF9 inh
# Record of COc1cccc(C(=O)C2CCCN(CC3=Cc4cc(OC)ccc4OC3)C2)c1 (stereo not drawn) : i	-1.8	52.0	-19.2	-30.6	-34.0	-3.1	7.5	-4.1	1.1
# Record of O=C(CSc1nnc(-c2ccncc2)s1)Nc1ccccc1 : i	-6.4	-2.0	-4.3	0.7	6.7	-1.4	-5.0	-1.2	0.4
